Source: PubChem BioAssay (National Center for Advancing Translational Sciences (NCATS))
Resorufin autofl: resorufin region autofluorescence; Compound fluorescence, resorufin region 547/598 nm, buffer; hits give high values; max dye-equivalent concentration, M; 0.04% of 59,000 active; active = above 10 nM dye equivalent; inconclusive = 1 to 10 nM; inactive = 1 nM or less; a few of its hits are not listed in these tables; further: highest value over a series up to 38 µM
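Compounds in 100 mM Tris, pH 8.0, incubated 15 min at room temperature, then fluorescence read at 547 nm excitation/598 nm emission. Signal converted to dye-equivalent concentration via an on-plate six-point resorufin standard curve, per compound concentration.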
TSHR ag: agonists of human thyroid stimulating hormone receptor; Potency, µM (highest dose often 57.1 µM), without a hit: at the top dose activation, actives largely listed as activators; P16473; HEK293-CNG-TSHR cells (CNG channel as cAMP sensor), membrane potential dye, cAMP; AID 926; 0.48% of 73,000 active; active = well fitted activation curve of enough size with the parental cells flat; inconclusive = any curve in the parental cells; inactive = parental cells flat and receptor cells flat or falling; further: potency means the concentration at half of the fitted maximal effect; % of control where 0% means no effect; weak receptor curves with flat parental cells got no call and are not listed
Target sequence (P16473 whole entry, looked up): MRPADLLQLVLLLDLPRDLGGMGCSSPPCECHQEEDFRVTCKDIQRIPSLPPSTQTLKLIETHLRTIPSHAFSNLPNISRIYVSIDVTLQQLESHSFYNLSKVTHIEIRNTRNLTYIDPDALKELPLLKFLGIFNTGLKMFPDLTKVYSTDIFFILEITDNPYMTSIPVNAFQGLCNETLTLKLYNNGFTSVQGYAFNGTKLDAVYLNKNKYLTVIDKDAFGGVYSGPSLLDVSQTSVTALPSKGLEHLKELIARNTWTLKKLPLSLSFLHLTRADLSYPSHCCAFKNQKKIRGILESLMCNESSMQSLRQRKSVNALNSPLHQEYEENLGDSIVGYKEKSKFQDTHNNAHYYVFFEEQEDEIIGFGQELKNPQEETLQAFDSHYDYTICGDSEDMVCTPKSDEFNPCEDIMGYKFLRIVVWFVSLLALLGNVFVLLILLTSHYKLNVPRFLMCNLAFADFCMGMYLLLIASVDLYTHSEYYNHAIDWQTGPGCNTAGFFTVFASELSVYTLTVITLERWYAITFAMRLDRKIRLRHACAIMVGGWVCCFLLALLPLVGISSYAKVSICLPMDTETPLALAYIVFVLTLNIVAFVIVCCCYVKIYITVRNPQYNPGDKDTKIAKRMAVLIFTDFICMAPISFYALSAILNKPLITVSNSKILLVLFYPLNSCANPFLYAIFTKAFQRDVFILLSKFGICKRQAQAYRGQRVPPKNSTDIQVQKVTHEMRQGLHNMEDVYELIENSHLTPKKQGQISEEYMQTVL
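HEK 293 cells stably expressing TSHR and a modified CNG channel, with CNG-only parental cells as counterscreen, were preloaded 60 min at room temperature with membrane potential dye containing 100 uM RO 20-1724. Compound exposure was 30 min, and depolarization was read as fluorescence at 590 nm.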
A647 autofl: compound autofluorescence in A647 spectral region; max dye-equivalent concentration, M; 59,000 tested, under 10 active; AID 592; Compound fluorescence, A647 channel (570/671 nm), Tris buffer; active means above 1 µM dye equivalent; inconclusive means 0.1 to 1 µM; inactive means 0.1 µM or less;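 further: values scaled relative to a standard on each plate; highest value over a series up to 38 µM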
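Spectral profiling of library compounds in pH 8.0 Tris: 15 min room-temperature incubation, single ex/em pair (570/671 nm), response normalized to Alexa 647 equivalents.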
A488 fluor: compound autofluorescence in A488 spectral region. AID 591. max dye equivalency, M. 0.1% of 59,000 active. compound autofluorescence, A488 spectral region, dye equivalency; hits give high values; active = above 10 nM dye equivalent; inconclusive = 1 to 10 nM; inactive = 1 nM or less; about half of its hits are not listed in these tables;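 further: highest value over a series up to 38 µM; compound alone in buffer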
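Spectroscopic profiling in the A488 region: compounds in pH 8.0 Tris (100 mM), 15 min RT, CCD imaging with 480 nm excitation and 540 nm emission; responses normalized against A488 dye standards.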
AID923: qHTS Assay for Allosteric/Competitive Inhibitors of Caspase-1: Spectroscopic Profiling in AFC Spectral Region; AID 923, 2007; compound fluorescence, AFC spectral region (405/520 nm); almost no hit is shown here; 1.1% of 75,000 active; Potency, µM (doses to about 57.5 µM), for the others: at the top dose fluorescence increase, usual class: activators; active means well fitted activation curve with a large enough effect; inconclusive means small, poorly fitted or top-dose-only effect;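 further: potency means the concentration at half of the fitted maximal effect; 0% is about no effect; scaled to a free AFC standard on each plate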
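Titrations up to 57 uM read every 20 sec for 3 min (405/520 nm) with 50 nM caspase 1 and 5 uM Ac-WEHD-AFC, pH 7.5 HEPES buffer. Fluorescence-vs-time intercept gave baseline, scaled against on-plate AFC standard.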
Active calls of the source: *; i = inactive; ? = inconclusive; / = not tested or not shown; & = joins results of further samples; [ ] = another dose, or the depositor's remark. These rows are one share of the data; the hit share may differ from the screen's.

item | SMILES | Resorufin autofl | TSHR ag | A647 autofl | A488 fluor | AID923
1 | COc1cc(NC(=O)C2CCN(S(=O)(=O)c3cccc4nonc34)CC2)cc(OC)c1 | i | -18% | 1.3e-09 | i | -0.2%
2 | Cc1cccc(C)c1NC(=O)CCCSc1nnnn1C | i | 3% | 1.1e-08 | i | -0.5%
3 | COCCn1c(Sc2nc(C)cs2)nc2c1c(=O)[nH]c(=O)n2C | i | -24% | 3.7e-08 | i | 2.2%
4 | O=C(Nc1ccccc1)c1ccc(S(=O)(=O)N(CCO)CCO)cc1 | i | 1% | 1e-09 | i | -0.8%
5 | COc1ccc(C)cc1S(=O)(=O)N(C)CC(=O)Nc1ccc2c(c1)OCO2 | i | 5% | 1e-09 | i | 1.0%
6 | Cc1ccc(C(=O)CSc2nc3ccccc3c(=O)n2N)o1 | i | 2% | 1.6e-09 | i | 0.3%
7 | COc1ccccc1Nc1nc(N)nc(CN2CCN(c3ccccc3F)CC2)n1 | i | 27% | 3.4e-09 | i | 4.1%
8 | c1ccc(Nc2n[nH]nc2-c2ccccc2)cc1 | / | 12% | / | / | 2.7%
9 | CCCCN(CC)CCNc1c(N2CCN(C(=O)OCC)CC2)c(=O)c1=O | i | 7%[11.4 µM] | 8.9e-09 | i | -0.1%
10 | COC(=O)[C@@]1(Cc2ccc(F)cc2)[C@H]2c3cc(C(=O)N(C)C)n(CCCNc4ccc(C(F)(F)F)cc4Cl)c3C[C@H]2CN1C(=O)c1ccccc1 | / | 2% | / | / | 0.4%
11 | CCC1S/C(=C(\C#N)C(=O)NCc2ccco2)N(c2ccc(Br)cc2)C1=O (centres undefined) | i | -8% | 3.7e-09 | i | 3.6%
12 | COc1cc(CNc2ccc3[nH]c(=O)[nH]c3c2)ccc1OCC(=O)NC(C)(C)C | i | -2% | 2.2e-08 | i | 15%
13 | S=C(NC1CCCCC1)NC1CCCCC1 | / | 5% | / | / | 3.3%
14 | CCOC(=O)N1CCC(NC(=O)c2sc(-n3cccc3)nc2C)CC1 | i | -3% | 1e-09 | i | 0.2%
15 | CCCn1nnc(NC(=O)c2cc3ccccc3o2)n1 | i | -9% | 3.1e-08 | i | -0.3%
16 | CCOc1ccc(N2C(=O)c3ccccc3C2O)cc1 (centres undefined) | / | ? | / | / | 2.6%
17 | Cc1ccc(S(=O)(=O)Cc2ccc(C(=O)N3CCCCCC3)o2)cc1 | / | 13% | / | / | -1.4%
18 | CC1=C(C(=O)NCCN2CCN(C)CC2)C2(CCC(C)CC2)OC1=O (centres undefined) | i | 2% | 1e-09 | i | 0.4%
19 | O=C(NCc1cccs1)c1ccc(Cl)s1 | i | / | 1.9e-08 | i | 5.2%
20 | CCCCc1nc(N2CCOCC2)c(C#N)c2c1CCCC2 | i | / | 7.6e-08 | i | /
21 | CCOC(=O)c1[nH]c2ccc(F)cc2c1NC(=O)C(C)N1CCc2cc(OC)c(OC)cc2C1 (centres undefined) | i | -6% | 1e-09 | i | 1.7%
22 | CC(C)C1=C2OC(N)=C(C#N)C(C#N)=C2C(C)CC1 (centres undefined) | i | / | 1e-09 | i | /
23 | O=C(COc1ccc(OCc2ccccc2)cc1)NC1CCOC1=O (centres undefined) | i | 7% | 6e-09 | i | -0.3%
24 | COc1ccc(C2N3CC4(C)CN2CC(C)(C3)C4O)cc1 (centres undefined) | / | 4% | / | / | 3.1%
25 | O=C(NCc1ccccc1)c1noc2c1CCCCC2 | i | 4% | 1e-09 | i | 0.4%
26 | Cc1c(C(=O)NCCN2CCOCC2)sc2nc(-c3ccc(F)cc3)cn12 | i | ? | 1.2e-08 | i | 0.9%
27 | CC1(C)[C@@H]2CC[C@]1(C)[C@@H](OC(=O)/C=C\c1ccccc1)C2 | i | 6%[11.4 µM] | 5.9e-08 | i | 1.3%[11.5 µM]
28 | Cc1ccc(NC(=O)CS(=O)CC(=O)N(c2ccccc2)C(C)C(=O)NC2CCCC2)cc1 (centres undefined) | i | -16% | 6.2e-09 | i | -0.7%
29 | COP(=O)(OC)OC(c1ccc(Cl)cc1)P(=O)(OC)OC (centres undefined) | / | -3% | / | / | 7.3%
30 | COc1ccc(-c2nc(C#N)c(N3CCCCCC3)o2)cc1OC | i | / | 1.6e-08 | i | 4.4%

Profiles, looked up by structure. Screens in order: Resorufin autofl	TSHR ag	A647 autofl	A488 fluor	AID923
Record of `Cc1ccc(NC(=O)CS(=O)CC(=O)N(c2ccccc2)C(C)C(=O)NC2CCCC2)cc1` (centres undefined) : i	-16%	6.2e-09	i	-0.7%
Record of `CC1(C)[C@@H]2CC[C@]1(C)[C@@H](OC(=O)/C=C\c1ccccc1)C2` : i	6%[11.4 µM]	5.9e-08	i	1.3%[11.5 µM]
Record of `Cc1c(C(=O)NCCN2CCOCC2)sc2nc(-c3ccc(F)cc3)cn12` : i	?	1.2e-08	i	0.9%

Carrying on.
item | SMILES | Resorufin autofl | TSHR ag | A647 autofl | A488 fluor | AID923
31 | Cc1ccc(NC2=CC(=O)CCC2)cc1C | i | 5% | 1e-09 | i | 4.0%
32 | CCCc1nc2oc3c(N4CCNCC4)ncnc3c2c2c1CCCC2 | i | -3% | 1e-09 | i | -0.3%
33 | O[C@H]([C@H](O)[C@@H](O)c1nc2ccccc2[nH]1)[C@@H](O)c1nc2ccccc2[nH]1 | i | -2%[11.4 µM] | 1.7e-08 | i | -1.6%[11.5 µM]
34 | Cc1nnc(C)n1/N=C/c1ccc(C(C)C)cc1 | i | 4% | 2.4e-08 | i | 1.1%
35 | COc1ccccc1NC(=O)CC1C(=O)Nc2c1c(=O)n(C)c(=O)n2C (centres undefined) | i | -4% | 3.6e-08 | i | -0.1%
36 | COCCCN1CC23C=CC(O2)C(C(=O)O)C3C1=O (centres undefined) | / | -2% | / | / | -1.4%
37 | CCCn1cnc2c(cnn2-c2ccc(F)cc2)c1=O | i | ? | 4.8e-09 | i | -0.7%
38 | Cc1ccc(S(=O)(=O)N[C@H]2COC(=O)[C@@H](C)COC(=O)C/C=C\[C@H]2C)cc1 | / | -4%[11.4 µM] | / | / | 2.2%[11.5 µM]
39 | COc1ccc(C2C=C(c3ccc(Cl)cc3)Nc3nc(NC(C)=O)nn32)cc1 (centres undefined) | i | / | 3.5e-09 | i | /
40 | CCCOc1ccc(C2C(C(=O)OC)=C(C)N=C3SCCC(=O)N32)cc1OCC (centres undefined) | i | 14% | 1.2e-08 | i | -0.8%
41 | CCOc1cc(NC(=O)c2ccco2)c(OCC)cc1NC(=O)CCc1ccc(OC)cc1 | i | 5% | 1e-09 | i | -0.8%
42 | CCOC(=O)c1cnc(SCC(=O)N2CCc3ccccc32)nc1N | i | / | 6.5e-09 | i | -0.8%
43 | CCCN(CCC)CCSc1nc(O)c(C(C)C)c(=O)[nH]1 | i | 5% | 1.5e-08 | i | -0.4%
44 | CC1CCC(N2CCN(S(C)(=O)=O)CC2)CC1 (centres undefined) | i | 11% | 1e-09 | i | -0.1%
45 | Cc1c(C(=O)O)[nH]c2c1C(=O)CC(c1ccc(Cl)cc1)C2 (centres undefined) | i | -14% | 2.7e-08 | i | 2.2%
46 | CN(CC(=O)Nc1ccc(F)c(Cl)c1)S(=O)(=O)c1cccc2nsnc12 | i | -7% | 1e-09 | i | -1.5%
47 | O=S(=O)(Nc1nccs1)c1ccc2c(c1)OCCO2 | i | 11% | 2.5e-08 | i | 0.9%
48 | Cc1onc(-c2ccccc2)c1C(=O)NCC1CCCO1 (centres undefined) | i | 0% | 1.9e-08 | i | -3.0%
49 | COCCCN1C(=O)C(=O)/C(=C(/O)c2ccc(OCC(C)C)cc2C)C1c1cccnc1 (centres undefined) | / | 4%[11.4 µM] | / | / | 0.6%
50 | COc1ccc(-c2noc(CCC(=O)NCCCN3CCC(C)CC3)n2)cc1 | i | ? | 4.9e-09 | i | 0.1%
51 | Cc1ccc2[nH]c3c(c2c1)CCCC3C(N)=O (centres undefined) | i | / | 1e-09 | i | /
52 | Cc1cccn2c(N)c(-c3ccccc3)nc12 | i | -2% | 5.1e-09 | i | 12%
53 | CCCCNc1cc(=O)n(C)c(=O)[nH]1 | / | 6% | / | / | -0.8%
54 | CCOC(=O)C(NC(=O)c1ccc(OC)cc1)(Nc1cc(C)on1)C(F)(F)F (centres undefined) | i | 6% | 5e-08 | i | -1.8%
55 | O=S(=O)(Nc1ccc(-c2nc3cccnc3s2)cc1)c1cccs1 | / | ? | / | / | 8.8%
56 | COc1ccc(Br)cc1S(=O)(=O)N1CC(C)OC(C)C1 (centres undefined) | i | 11% | 1e-09 | i | -2.9%
57 | Cc1ccc2cc(CN(CC3CCCO3)S(=O)(=O)c3c(C)ccc4nsnc34)c(=O)[nH]c2c1 (centres undefined) | i | 2% | 5.1e-08 | i | 1.5%
58 | CC(=O)c1c(C)nc2ccccn12 | i | 20%[11.4 µM] | 2e-09 | i | -0.7%
59 | COc1ccccc1NC(=O)Nc1ccnn1C1CCCCC1 | i | 6% | 2.2e-08 | i | -1.3%
60 | Cc1ccc(-c2nnn(CC(=O)NCCc3ccc4c(c3)OCO4)n2)o1 | i | 16% | 6.1e-08 | i | -2.6%
61 | O=C(COc1ccc(S(=O)(=O)N2CCCCC2)cc1)N1CCCCCC1 | i | -9% | 1e-09 | i | -0.4%
62 | CC(C)n1c(NCc2cccs2)nc2ccccc21 | i | 5% | 3.5e-08 | i | 3.8%
63 | O=C(Nc1nc(-c2cccs2)cs1)c1cccc(S(=O)(=O)N2CCCCCC2)c1 | i | 13% | 1e-09 | i | 0.6%
64 | COc1ccc(Br)c(C(=O)Nn2c(C)nc3ccccc3c2=O)c1 | i | ? | 2.7e-09 | i | 0.4%
65 | COc1ccc(N2CCN(C(=O)c3ccc4nc(N5CCCCC5)sc4c3)CC2)cc1 | / | -3% | / | / | -0.8%
66 | CCCc1[nH]nc2c1C(c1ccccc1OC)C(C#N)=C(N)O2 (centres undefined) | i | 7% | 5.2e-08 | i | -0.8%
67 | Cc1nc2nc[nH]n2c(=O)c1NS(C)(=O)=O | i | 3% | 6.8e-09 | i | -0.1%
68 | Cn1cc(S(=O)(=O)N2CCN(c3cccc(C(F)(F)F)c3)CC2)c(=O)n(C)c1=O | / | ? | / | / | 1.8%
69 | CSCCC(NC(=O)c1ccccc1)C(=O)NCc1ccco1 (centres undefined) | i | 5% | 3.4e-09 | i | -2.5%
70 | C#C[C@]1(O)CC[C@@H]2[C@H]3CCC4=CCCC[C@@H]4[C@@H]3CC[C@@]21C | i | 5%[25.6 µM] | 3.4e-09 | i | -0.8%[25.7 µM]
71 | CCc1c(C(=O)O)[nH]c2ccc(Br)cc12 | i | / | 8.3e-09 | i | /
72 | Nc1ccc(S(=O)(=O)Nc2ccccn2)cc1 | i | -3%[25.6 µM] | 1e-09&2.5e-09 | i | -4.7%
73 | CC(=O)NCCNc1ncncc1-c1ccc(N(C)C)cc1 | i | 3% | 3.5e-08 | i | -0.1%
74 | CCOC(=O)c1nnn(-c2nn3nnnc3c3ccccc23)c1C | i | 6% | 6.1e-08 | i | 0.9%
75 | c1coc(CNc2ncnc3c2oc2ccccc23)c1 | i | 8% | 2.3e-08 | i | -0.3%
76 | COC(=O)c1c(-c2ccccc2)csc1NC(=O)c1ccco1 | i | ? | 1.3e-09 | i | -2.7%
77 | CN(CCNC(=O)C1(O)c2ccccc2NC(=O)N1c1ccccc1)Cc1ccccc1 (centres undefined) | i | 1% | 1e-09 | i | 0.2%
78 | CCC(C)Nc1nc(SC(C(C)=O)C(C)=O)nc(N(C)C)n1 (centres undefined) | i | -11% | 1.5e-08 | i | 0.5%
79 | CCOC(=O)C1=C(C)NC(=O)NC1c1ccc2c(c1)OCCO2 (centres undefined) | i | 3% | 1.3e-08 | i | -1.9%
80 | Cn1cc(S(=O)(=O)CC(=O)Nc2ccc3c(c2)OCCO3)c2ccccc21 | i | 2% | 2.3e-08 | i | 1.5%
81 | COC(=O)c1ccc(O)c(Sc2cc(C(=O)OC)ccc2O)c1 | i | 51% | 1e-09 | i | 1.7%
